D2 agonist: agonists of human D2 dopamine receptor (beta-arrestin). P14416. activation, % (concentration not given with the values). DiscoveRx PathHunter D2 beta-arrestin, luminescence, 90 min; 100% = 57 uM dopamine signal. actives 0.084% (n = 360,000). AID 624465; in the data active = activation above about 40%; inconclusive = about 15% to 40%; inactive = below about 15%; note: compound concentration not given in the record; the text of the record calls up to 30% inactive
Target sequence (P14416 whole entry, looked up): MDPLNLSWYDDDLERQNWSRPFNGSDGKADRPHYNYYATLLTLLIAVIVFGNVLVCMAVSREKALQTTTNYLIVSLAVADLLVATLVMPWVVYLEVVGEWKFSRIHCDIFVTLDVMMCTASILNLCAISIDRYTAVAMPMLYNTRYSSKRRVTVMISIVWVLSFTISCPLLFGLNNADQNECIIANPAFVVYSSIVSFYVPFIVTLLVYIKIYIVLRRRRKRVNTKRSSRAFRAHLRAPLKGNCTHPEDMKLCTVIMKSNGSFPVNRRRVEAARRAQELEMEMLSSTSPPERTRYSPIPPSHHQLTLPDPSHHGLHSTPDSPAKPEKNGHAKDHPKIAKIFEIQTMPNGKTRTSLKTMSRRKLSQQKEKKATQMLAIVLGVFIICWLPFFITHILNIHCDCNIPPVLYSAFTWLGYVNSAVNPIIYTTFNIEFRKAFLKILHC
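DiscoveRx PathHunter D2 beta-arrestin cells (2,100/well) attached overnight, then compound-stimulated 90 min at 37 C in HBSS/10 mM HEPES/0.1% Tween-20 buffer; beta-galactosidase complementation read by luminescence after 1 h at ambient temperature. Dopamine 57 uM final (EC100) as control.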
Sfp inh: inhibitors of Bacillus subtilis Sfp phosphopantetheinyl transferase | Q9F4F7 | Biochemical Sfp PPTase activity, qHTS | Potency, µM, inactives show max response, negative = inhibition, most hits filed as inhibitors | actives 3.5% (n = 310,000); active = well fitted inhibition curve with a large enough effect; inconclusive = small, poorly fitted or top-dose-only effect, or another doubt; inactive = no such curve, though single readings can be large or run the other way;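 note: the enzyme is Sfp with the accession as filed and its product quenches rhodamine fluorescence; potency is the fitted concentration of half-maximal effect; 0% = enzyme reaction without inhibitor and -100% = no enzyme wells; top concentration of the series not given in the record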
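With Hepes-Na pH 7.6 buffer containing 10 mM MgCl2, Sfp (15 nM) modified BHQ-2-YbbR (12.5 uM) using rhodamine-CoA (5 uM). Two reads 30 minutes apart at 525/598 nm yielded each well's rate.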
ClpP mod: qHTS Assay for Activators of ClpP | ATP-dependent Clp protease proteolytic subunit (Bacillus subtilis (strain 168)), P80244 | purified B. subtilis ClpP, FRET peptide cleavage, 20 min | Potency, µM (highest dose often 57.5 µM), without a hit: top-dose activity change, negative = active | actives 1.9% (n = 340,000) | AID 651965, 2013; active = well fitted falling curve with a large enough effect; inconclusive = small, poorly fitted or top-dose-only effect; inactive = no such curve, though single readings can be large or run the other way; note: potency is the fitted concentration of half-maximal effect; the source files actives as falling curves though it sought activators and does not explain the sign; nearly all actives have a fitted effect of over 65% in size; many hits overshoot -100%
Target sequence (P80244 whole entry, looked up): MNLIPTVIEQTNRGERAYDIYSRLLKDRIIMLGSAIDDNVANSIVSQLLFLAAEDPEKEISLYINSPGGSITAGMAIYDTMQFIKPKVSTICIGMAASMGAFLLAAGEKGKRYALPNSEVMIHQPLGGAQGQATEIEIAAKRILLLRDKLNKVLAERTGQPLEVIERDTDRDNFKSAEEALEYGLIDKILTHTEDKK
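Purified B. subtilis ClpP, 10 microg/mL final in Tris/HCl pH8 with KCl, BSA, glycerol and Tween-20, cleaved an Abz/nitrotyrosine-quenched decapeptide. Fluorescence (ex 320, em 430) was read at 0 and 20 min at room temperature. Delta was normalized to 5.8 microM ADEP and DMSO/no-enzyme controls.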
gsp ag: gsp mutant agonism. gsp mutant cells, cAMP HTRF, 30 min; control for the full effect not named in the record. Potency, µM (highest dose often 76.9 µM), for the others: at the top dose activation (cAMP increase), actives largely listed as activators. actives 0.13% (n = 340,000). AID 624287; active = well fitted activation curve with a large enough effect; inconclusive = small, poorly fitted or top-dose-only effect, or another doubt; inactive = no such curve, though single readings can be large or run the other way; cell line not stated here;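 note: phosphodiesterase inhibitor Ro 20-1724 added with compounds to block cAMP breakdown; potency is the fitted concentration of half-maximal effect; nearly all actives have a fitted effect of over 60% in size; about a fifth of the inactives were tested at one dose only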
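Cells in DMEM/10% FBS with G418 were pretreated with compounds in DMSO plus […] (300 uM stock) for 30 min at 37C. cAMP was measured by HTRF (cAMP-d2 plus anti-cAMP antibody-K) after 30 min at room temperature.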
PINK1 expr mod: modulators of PINK1 expression. PINK1 immunofluorescence, high-content cytometry, 24 h. Potency, µM (doses to about 76.6 µM), inactives show at the highest dose activation (PINK1 increase), usual class: activators. actives 0.2% (n = 410,000); active = well fitted activation curve with a large enough effect; inconclusive = small, poorly fitted or top-dose-only effect; inactive = flat fitted curve, though single readings scatter; cell line not stated here;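 note: potency is the fitted concentration of half-maximal effect; % of control where 0% means no effect; nearly all actives have a fitted effect of over 65% in size; a mitochondrial uncoupler was the plate control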
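A stable cell line was treated with compounds at 5 concentrations for 24 hours, with CCCP as control. PINK1 levels and mitochondrial localization were measured by immunofluorescence with mitochondrial, cell and nuclear markers after fixation, read by laser-scanning cytometry.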
gsp antagonist: gsp mutant antagonism. gsp-mutant cells, cAMP HTRF, 30 min; control for the full effect not named in the record. Potency, µM (highest dose often 76.9 µM), without a hit: at the highest dose activity change, negative = inhibition, usual class: inhibitors. actives 0.4% (n = 340,000). AID 624288; active = falling curve of any shape with a large fitted effect; inconclusive = falling curve, mostly with a smaller effect; inactive = flat or rising curve; cell line not stated here;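 note: intracellular cAMP measured with PDE inhibitor Ro 20-1724 present during compound exposure; potency is the fitted concentration of half-maximal effect; % is set by controls: 0 for no effect and ±100 for the full control effect; nearly all actives have a fitted effect of over 65% in size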
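HTRF cAMP measurement after 30 min RT detection following 30 min, 37C compound treatment alongside […] (added as 300 uM solution) in G418-selected cells seeded at 2000/well and grown 16–24 h.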
Menin-MLL FL inh: displaces fluorescein MLL peptide from human menin; Fluorescence polarization, fluorescein-MLL peptide displacement from menin; FP activity change, % at 61.4 µM; 290,000 tested, under 10 active; AID 1766; inconclusive = falling polarisation curve, or a change in total fluorescence; inactive = total fluorescence flat and polarisation flat or rising; no compound was filed as active; the % refers to the polarisation; negative = inhibition;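 note: % of control where 0% means no effect; inhibitors lower the polarisation; unlabelled MLL peptide was the positive control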
The depositor's hits bear a star; ? = inconclusive; . = no result given; & = joins results of further samples; [ ] = another dose, or the depositor's remark.

SMILES | D2 agonist | Sfp inh | ClpP mod | gsp ag | PINK1 expr mod | gsp antagonist | Menin-MLL FL inh
Cc1ccc(CSc2nnc(NC(=O)C3=COCCO3)s2)cc1 | 2.8 | . | -5.3% | ? | -0.8% | -3% | .
O=C(COC(=O)c1ccc(O)cc1O)Nc1ccc2c(c1)OCCO2 | -2.3 | . | 0.5% | 20% | -0.4% | -9% | .
COc1ccc2[nH]cc(CCNc3ncncc3-c3ccccc3OC)c2c1 | . | -26% | . | . | -0.2% | . | 1.0
CNC(=O)c1ccsc1NC(=O)c1ccc(S(=O)(=O)N2CCOCC2)cc1 | -4.0 | 2% | -3.2% | -14% | 0.2% | -10% | 3.0
C#CCN(Cc1ccco1)C(=O)c1cc(COc2cccc3cccnc23)on1 | -1.3 | . | -9.7% | -65%[inhibitor] | -0.1% | . | .
O=C(O)c1cccc(NS(=O)(=O)c2ccc(Cl)c(C(=O)O)c2)c1 | -2.1 | 6% | -0.8% | ? | 35%[38.3 µM] | 9% | ?
COc1ccc(N2CCN(CC(=O)Nc3c(C)cc(C)cc3C)CC2)cc1 | -0.1 | 13% | -9.5% | 13% | 1.2%[38.3 µM] | -6% | -0.4
Nc1nc2c(nnn2C2CC(O)C(CO)O2)c(=O)[nH]1 (stereo not drawn) | -3.3 | . | -18% | . | 0.5% | . | .
Cc1ccc(CNC(=O)C(=O)NCC2OCCN2S(=O)(=O)c2ccc3c(c2)OCCO3)cc1 (stereo not drawn) | -2.9 | 8% | -2.3% | -27% | -1.1% | -6% | 1.4
COC(=O)CCCC(=O)N1CCC(CCC(=O)NC2CC2)CC1 | -2.4 | 23% | 0.0% | 4% | 3.2% | 5% | -0.6
CCCc1ccc(OCCNC(=O)CC)cc1 | -2.9 | 9% | -0.8% | -32%[inhibitor] | 12%[38.3 µM] | 6% | 2.4
O=c1[nH]c2ccccc2nc1C(Nc1ccccc1)c1ccccc1 (stereo not drawn) | -2.5 | 5% | -3.2% | -2% | 7.8% | -13% | 2.3
O=C(NC1CCCCC1)c1ccc(OC2CCN(Cc3ccccn3)CC2)cc1 | -2.7 | -3% | -1.6% | 6% | -1.1% | 4% | .
COc1ccc(C(=O)Nc2ccc(S(=O)(=O)Nc3nccc(C)n3)cc2)cc1[N+](=O)[O-] | -3.3 | 7% | 0.3% | ? | 0.0% | -2% | 0.3
CCCCC(=O)OCc1cn(-c2ccc(Cl)cc2)nn1 | -1.6 | 5% | -0.9% | -28% | -3.0% | 8% | 5.6
O=C(Nc1ccccc1Cl)C1CCCN(S(=O)(=O)c2cccc3cccnc23)C1 (stereo not drawn) | ? | 11% | -3.3% | -113%[inhibitor] | 2.1% | -16% | .
Cc1cc(C)cc(NC(=O)N2CCCC2C(=O)Nc2ccc(-n3cnnn3)c(C)c2)c1 (stereo not drawn) | 0.0 | 5% | 0.7% | ? | -0.2% | -4% | 7.6
O=C(O)c1cccc(CSc2ncccn2)c1 | -0.2 | 10% | -0.4% | 26% | -3.3%[38.3 µM] | -5% | 0.8
CC(=O)Nc1ccc(-c2c(C)cc3oc(=O)cc(-c4ccccc4)c3c2C)cc1 | -3.4 | -17% | -4.4% | . | 0.1% | -13% | -0.2
COc1cc2c(cc1OC)C(COc1ccc(F)cc1)NCC2 (stereo not drawn) | -4.5 | 1% | -12% | 3% | -2.1% | 0% | -8.3
CC(=O)c1c(OC(=O)c2ccccc2)c2ccccc2n1C | 3.2 | -19% | -7.4% | -17% | . | -29% | -5.9
O=C(c1csnn1)N1CCC2(CC1)CCN(c1cccc(-c3ccccc3)c1)CC2 | . | -2% | . | . | 0.5% | . | -0.4
CCC(C)(C)C1CCc2[nH]nc(C(=O)N/N=C(\C)c3ccco3)c2C1 (stereo not drawn) | -6.3 | 7% | . | ? | 7.8% | ? | 3.8
O=C(CN(C(=O)CCC(=O)Nc1nccs1)c1ccccc1F)NCc1ccc2c(c1)OCO2 | 1.7 | 5% | . | -3%[15.4 µM] | 1.9% | -25% | -5.0
COc1ccc(C2(CNC(=O)c3ccccc3)CCOCC2)cc1 | -4.2 | -2% | . | 19%[15.4 µM] | -2.2% | -8% | 0.6
CC(=O)NCCC(=O)Nc1ccc(C)c(F)c1 | -1.6 | 14% | -0.5% | -9% | -1.2% | 10% | -0.4
CCOc1cc(NC(=O)c2ccccc2OC)c(OCC)cc1NC(=O)c1ccccc1 | -4.8 | 6% | 1.9% | -19% | -0.1% | 16% | -0.7
Cc1c(C)n(C)c2ccc(C(=O)NCCCN3CCCCC3C)cc12 (stereo not drawn) | -1.3 | -6% | -11%&-15% | -10% | -0.6%&-1.2% | 3% | .
Cc1nnc(SCc2cnc(-c3ccc(C(C)C)cc3)s2)n1C | -3.2 | -6% | 0.7% | -2% | . | 9% | 1.7
Cc1ccc(-c2nc3ccccc3c(=O)n2O)cc1 | -5.4 | -14% | . | 1% | 2.1% | 2% | 3.7
Cc1ccccc1NS(=O)(=O)c1cc2c(cc1C)N(C)CCO2 | 1.6 | 6% | -1.1% | -30%[inhibitor] | 2.4% | 4% | 2.2
CCOC(=O)N1CCN(C(=O)C2CCN(Cc3cccc(OCc4ccccc4)c3)CC2)CC1 | -0.1 | -23% | -0.3% | -14% | 0.9% | 8% | 5.3
O=C(/C=C/c1ncc(C(F)(F)F)cc1Cl)OCc1ccccc1 | -0.3 | -10% | 0.6% | 3% | 1.7%[38.3 µM] | 4% | -0.7
O=C1COc2cccnc2N1 | -3.7 | 15%&25% | 1.7% | -14% | -0.7% | -7% | 10&1.3
CCC(C(=O)c1ccccc1)N(C(=O)c1ccccc1Cl)N1C(=O)C2C3C=CC(C3)C2C1=O (stereo not drawn) | -2.4 | 17% | -0.8% | -88%[inhibitor] | 4.7% | -11% | -0.6
COc1ccc2c(=O)c(C(=O)NCc3ccccc3)c[nH]c2c1 | 6.8 | 0% | . | -5% | 5.8% | -4% | -1.7
COc1ccc(NC(=O)c2cn(-c3ccccc3)nc2SC)cc1 | 4.6 | -24% | -4.1% | -3% | -0.8% | ? | 2.4
CCC(CC)c1nnc(NC(=O)Oc2ccccc2)s1 | -3.8 | 23% | 1.5% | 5% | 3.9%[38.3 µM] | 14% | -4.2
COc1ccc(C2(C)NC(=O)N(CC(=O)NCc3ccccc3)C2=O)cc1OC (stereo not drawn) | 0.2 | 10% | . | 8%[15.4 µM] | -2.0% | 8% | -3.2
CCc1ccc(NC2=NCC(=O)N2c2ccc3c(c2)OCCO3)cc1 | -0.6 | 6% | 2.1% | -11% | 1.3% | -4% | 2.4
COc1ccc(NS(=O)(=O)c2ccc(O)c(C(=O)OCC(=O)NC(C)C3CC4CCC3C4)c2)cc1 (stereo not drawn) | -4.5 | 22% | -1.8% | -11%[15.4 µM] | -1.3% | -6% | -2.8
C[C@H]1CN([C@@H](C)CO)C(=O)c2cc(-c3cccc(F)c3)cnc2O[C@@H]1CN(C)S(C)(=O)=O | -2.7 | . | 1.7% | -19% | 0.8% | . | .
O=C(CN1CCN(S(=O)(=O)c2ccc(F)cc2)CC1)Nc1ccc2c(c1)OCCO2 | -12 | 17% | -3.2% | 15% | 0.5% | -4% | 1.9
COc1ccc(C(=O)NCCCc2nc3ccccc3n2Cc2cc(C)ccc2C)cc1OC | -2.6 | -7% | -0.5% | -1% | 3.9% | -4% | 4.0
O=C(O)/C=C/C(=O)N1CCN(c2ccc(F)cc2)CC1 | -4.5 | -6% | . | -3%[15.4 µM] | -0.7% | 10% | 1.9
NC(=O)COc1ccc(/C=C2\C(=O)ON=C2c2ccccc2)cc1 | -1.4 | . | 1.2% | 3% | 1.5% | -19% | .
COc1ccc(C(c2c(C)[nH][nH]c2=O)c2c(C)[nH][nH]c2=O)cc1Br | 1.6 | 0% | 0.3% | -10% | 0.5% | -1% | 3.2
O=C(Cc1ccccc1)NO | . | 24% | -0.5% | . | 1.3% | . | ?
CCC(=O)Nc1ccc(Nc2nc(Cl)nc(Nc3ccc(NC(=O)CC)cc3)n2)cc1 | 5.3 | -15% | . | 7% | 2.9% | 6% | 0.6
COc1cc(NC(=S)N2CCN(C(c3ccccc3)c3ccccc3)CC2)cc(OC)c1 | -2.7 | 9% | -1.5% | 1% | -0.6% | -16% | -3.4
O=c1nc(SCc2ccccc2Cl)nc(-c2ccc(Cl)cc2)[nH]1 | 2.5 | 5% | . | -9%[15.4 µM] | -0.9% | 6% | 2.7
CCn1c(SCC(=O)N2CCCCC2C)nc2c1c(=O)n(C)c(=O)n2C (stereo not drawn) | -0.9 | 7% | . | 19%[15.4 µM] | 0.5% | -19% | .
COc1cccc(C(C)=C2SC(=S)NC2=O)c1 | -6.2 | . | 2.0% | 21% | -3.0% | -8% | .
COc1ccccc1N(C(=O)c1snc(C(N)=O)c1N)C(C(=O)NC1CCCC1)c1ccco1 (stereo not drawn) | 3.5 | 8% | ? | -4% | 3.4%[38.3 µM] | -15% | -1.7
COc1ccccc1NS(=O)(=O)c1cccc(NC(=O)CCNC(=O)c2ccccc2OC)c1 | 0.4 | . | -1.2% | 8% | 1.4% | ? | .
Cc1nc(CNC(=O)CC2C(=O)NCCN2Cc2ccc(F)cc2)cs1 (stereo not drawn) | -4.8 | 4% | -0.5% | -40% | 0.0% | 14% | .
Cc1cccc(C)c1NC(=S)/N=C/N(C)C | -2.5 | -1% | . | -7%[15.4 µM] | 0.9% | -7% | -5.2
CCN(CC)c1nc(Nc2ccccc2)nc(Oc2ccc(=O)n(C)n2)n1 | -0.4 | -19% | -5.9% | -25% | 3.9% | -21% | 0.1
COC(=O)c1ccccc1S(=O)c1snnc1C (stereo not drawn) | -0.8 | 21% | . | 10%[15.4 µM] | 7.9% | 10% | -1.9
COc1ccc(-c2cc(C(=O)Nc3ccc(OC)c(OC)c3)[nH]n2)c(C)c1 | -1.5 | . | -3.7% | . | 0.9% | . | .
Cc1ccc(C)c(NC(=O)c2ccccc2Sc2ccc([N+](=O)[O-])cc2Cl)c1 | -1.9 | 5% | . | -10%[15.4 µM] | 0.2% | ? | -0.6
